High-throughput results as filed in PubChem BioAssay.
GLA inh pH 4.5 = inhibitors of human alpha-galactosidase A at pH 4.5; activity change, negative = inhibition, % at 105 µM; 230,000 tested, under 10 active; AID 1467; purified enzyme, 4-MU-alpha-Gal fluorescence, pH 4.5; P06280; inconclusive = small, poorly fitted or top-dose-only inhibition, or a rising curve; inactive = flat fitted curve, though single readings scatter; no compound was filed as active;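 further: 0% = full activity with enzyme and -100% = basal without enzyme; dose as in the result columns while the protocol names 77 µM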
Target sequence (P06280 whole entry, looked up): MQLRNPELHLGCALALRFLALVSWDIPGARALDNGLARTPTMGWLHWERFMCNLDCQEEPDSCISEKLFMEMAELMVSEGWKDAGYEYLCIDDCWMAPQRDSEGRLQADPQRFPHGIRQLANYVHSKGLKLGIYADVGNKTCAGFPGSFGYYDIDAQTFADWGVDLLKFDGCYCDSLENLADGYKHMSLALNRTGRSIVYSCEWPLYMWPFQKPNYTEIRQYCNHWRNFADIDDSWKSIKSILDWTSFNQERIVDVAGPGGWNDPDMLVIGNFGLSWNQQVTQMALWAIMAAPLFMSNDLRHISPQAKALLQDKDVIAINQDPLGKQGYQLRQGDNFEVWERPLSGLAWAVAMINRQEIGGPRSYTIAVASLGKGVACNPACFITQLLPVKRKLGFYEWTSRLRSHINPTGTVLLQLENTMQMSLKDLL
Rango dissoc inh = prevents RanGTP from dissociating the Rango-importin beta complex; Potency, µM (highest dose often 46.1 µM), inactives show top-dose activity change, negative = inhibition; Biochemical FRET Rango-importin beta, RanGTP-induced dissociation; AID 540253; hit rate 0.071% among 340,000; active means falling FRET ratio curve, often poorly fitted, with flat reads before Ran was added; inconclusive means other falling curves, or compound fluorescence or quenching; inactive means flat or rising ratio curve;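 further: potency means the concentration at half of the fitted maximal effect; % of control where 0% means no effect; nearly all actives have a fitted effect of over 45% in size; -100% = wells without RanGTP and RCC1; the record marks most hits as doubtful in a second field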
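FRET read at 45 min, room temperature: inhibitors block the CFP/YFP signal rise when RanGTP (0.6 uM Ran, 2 mM GTP, 0.2 uM RCC1) frees Rango (0.1 uM) from importin beta (0.25 uM). Pre-read after 5 min compound exposure flags interference.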
miR-21 reporter = raises the signal of a miR-21 reporter; Potency, µM (highest dose often 38.3 µM), for inactives: at the highest dose reporter change, positive = more light; HeLa miR-21 FLuc reporter, luciferase, 48 h; 340,000 tested, under 10 active; AID 2288; active = well fitted rising curve with a large enough effect; inconclusive = small, poorly fitted or top-dose-only effect; inactive = no such curve, though single readings can be large or run the other way;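 further: % of control where 0% means no effect; miR-21 action dims this reporter so a rising signal means less miR-21 action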
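HeLa miR-21-FLuc reporter line, endogenous miR-21; 2000 cells/well in DMEM/10% FBS; compound titration up to ~40uM final, 48 h, 37 degree Celsius; luciferase detection reagent, 15 min lysis, CCD luminescence.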
Rango-impB inh = Rango-importin beta binding inhibition | Q14974 | Rango CFP/YFP FRET sensor + importin beta, 45 min | Potency, µM (highest dose often 92.2 µM), for inactives: top-dose inhibition of complex formation | hit rate 0.031% among 340,000; active = rising FRET ratio curve, often small or poorly fitted; inconclusive = mostly compound fluorescence or quenching in the first reads; inactive = flat curves in all reads;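 further: potency means the concentration at half of the fitted maximal effect; 0% = DMSO wells and 100% = buffer wells lacking importin beta; nearly all actives have a fitted effect of over 15% in size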
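FRET biosensor (snurportin 1 IBB flanked by EYFP and cerulean), 50 nM, with compound 5 min, then 0.125 microM importin beta in PBS, 1 mM DTT, 0.02% Tween-20, 0.1% BSA. CFP/YFP ratio read after 45 min at room temperature; pre-read flags interference.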
* marks the source's active call; other numbers are inactive results; ? = inconclusive; / = no result given; & = joins results of further samples; [ ] = dose if it differs, or a comment. The list is partial; rates above refer to the full screens.

SMILES	GLA inh pH 4.5	Rango dissoc inh	miR-21 reporter	Rango-impB inh
CCCOc1cccc(C(=O)Nc2nnn(CCC)n2)c1	-1	3%	-49%	0.0%
COc1ccccc1CNC(=O)C1CCC(=O)N1C(C)C (stereo not given)	/	9%	0%	0.6%
CCN(CC)C(=O)[C@H]1C[C@H](CC(=O)NCCCn2ccnc2)C(=O)N2CCc3c([nH]c4ccc(Cl)cc34)[C@]12C	/	7%	/	-3.6%
COc1ccc(OC)c(C2SCCN2S(C)(=O)=O)c1 (stereo not given)	6	-25%	1%	-1.4%
COc1cc(SC)ccc1C(=O)OCC(=O)NCCC1=CCCCC1	/	8%	/	3.0%
COc1cc(C2=Nc3c(c(C)nn3-c3ccccc3)P(=O)(N3CCOCC3)O2)cc(OC)c1OC (stereo not given)	-10	8%	-1%	-2.2%
COc1ccc(S(=O)(=O)N(C)CC(=O)NCCCN2CCOCC2)cc1Cl	/	3%	-5%	-0.1%
CCNc1ccc(C(=O)OC(C(=O)NC(N)=O)C(C)C)cc1[N+](=O)[O-] (stereo not given)	2	26%	-13%	-0.8%
Cc1nc(NC(=O)/C=C/c2ccccc2)sc1C(=O)NCCO	0	2%	-13%	0.4%
CC(=O)NC(CCS(C)(=O)=O)C(=O)Nc1cccc(C)c1 (stereo not given)	-2	8%	-2%	1.1%
O=[N+]([O-])c1cccc(C=NN=Cc2ccccc2O)c1	/	12%	/	-0.4%
COc1cccc(NC(=O)Nc2ccc(Br)cn2)c1	1	14%	-42%	0.1%
CCn1c(SCC(=O)N2CCCCC2C)nnc1-c1ccc(S(=O)(=O)N2CCN(C)CC2)cc1 (stereo not given)	1	-18%	0%	-0.8%
O=C(CCN1C(=O)S/C(=C\c2ccccc2)C1=O)NCCCn1ccnc1	/	?	-5%	-1.6%
CCOC(=O)c1c(C)c(C(=O)N2CCc3ccccc3C2)c(C)n1CC	0	30%	18%	0.9%
N#CCCN1CCN(Cc2cc(-c3ccccc3)ccc2O)CC1	-7	-6%	-6%	0.3%
C[C@@H](C(=O)NCc1ccco1)N1C(=O)N2CCc3c([nH]c4ccccc34)[C@@]2(C)C1=O	/	3%	12%	1.1%
O=C(NCc1ccc(F)cc1)C(c1ccccc1)N(C(=O)c1csnn1)c1ccccc1 (stereo not given)	/	-9%	20%	3.2%
COc1ccc(CC(=O)Nc2ccc3c(c2)OCO3)cc1S(=O)(=O)N1CCOCC1	1	-8%	-1%	-3.8%
O=C(N/N=C/c1cc(Br)c(Br)s1)c1ccncc1	6[21.1 µM]	9%	27%	-1.9%
Cc1cc(NC(=O)CSc2nc(-c3cccs3)cc(C(F)(F)F)n2)no1	4	-3%	18%	1.2%
C/C(=N\Nc1ccc(F)cc1F)c1ccccc1O	-7	2%	-34%	-0.2%
Cc1ccccc1OCC(=O)O/N=C(\N)Cc1cccs1	-1	-15%	-31%	0.1%
Cc1ccnc(NCc2ccccc2O)c1	/	1%	-26%	0.6%
O=C(CS(=O)(=O)c1ccccc1)N1CCCCCC1	-5	8%	-28%	3.9%

An excerpt from above in order of SMILES length, lowest first:
SMILES	GLA inh pH 4.5	Rango dissoc inh	miR-21 reporter	Rango-impB inh
C/C(=N\Nc1ccc(F)cc1F)c1ccccc1O	-7	2%	-34%	-0.2%
CCn1c(SCC(=O)N2CCCCC2C)nnc1-c1ccc(S(=O)(=O)N2CCN(C)CC2)cc1 (stereo not given)	1	-18%	0%	-0.8%
CCN(CC)C(=O)[C@H]1C[C@H](CC(=O)NCCCn2ccnc2)C(=O)N2CCc3c([nH]c4ccc(Cl)cc34)[C@]12C	/	7%	/	-3.6%

Next compounds:
SMILES	GLA inh pH 4.5	Rango dissoc inh	miR-21 reporter	Rango-impB inh
CC(C)(C)OC(=O)NC(CCCCNC=O)C(=O)O (stereo not given)	-1	-4%	-10%	-0.5%
CC1CC(C)CN(c2oc(-c3ccccc3Cl)nc2C#N)C1 (stereo not given)	-7	29%	-5%	11%
CCc1ccc(-c2csc(NC(=O)COC(=O)CCc3nc4ccccc4s3)n2)cc1	-3	/	-73%	/
COc1ccc(C2=NOC(Cn3nc(C(=O)NCc4ccc(C)cc4)cc3-c3ccccc3)C2)cc1 (stereo not given)	/	-4%	/	-1.5%
Cc1ccc(-c2cc(C(=O)N/N=C/c3c(C)nn(-c4ccccc4)c3C)n[nH]2)s1	?	11%	14%	2.8%
CCc1ccc(C(C(=O)NCCOC)N(C(=O)Cn2nnc3ccccc32)c2cccnc2)cc1 (stereo not given)	-10	6%	-5%	-2.8%
COc1cccc2c1OC[C@@H](CO)[C@H]2N(C)C(=O)Nc1ccccc1	-1	6%	-3%	2.8%
CC1CCN(C(=O)Cn2cc(SCC(=O)NCC3CCCO3)c3ccccc32)CC1 (stereo not given)	-1	-3%	-5%	2.7%
CCOC(=O)CN(C)Cc1cn(C)nc1-c1ccc(Oc2ccccc2)cc1	/	-2%	11%	11%
O=c1[nH]c(-c2ccccc2)nc2sc(-c3ccccc3)cc12	4	-2%	-29%	-5.5%
CN(Cc1ccccc1)c1nc(-c2cccc([N+](=O)[O-])c2)nc2ccccc12	-10	9%	-1%	-2.0%
CSc1ncccc1C(=O)NC1CCCCCC1	3	-14%	-14%	0.6%
COc1ccc(-n2nnnc2SCC(=O)Nc2cccc(O)c2)cc1	/	-18%	-3%	-0.4%
Cc1nc(N2CCN(c3ccccn3)CC2)c2c(C)c(C(=O)N3CCN(c4ccc(F)cc4)CC3)sc2n1	/	9%	?	?
O=C(COC(=O)/C=C/c1cccc(F)c1)NC(=O)NCc1ccccc1	/	-24%	/	?
O=C(c1cccnc1)N1CCN(C/C=C/c2ccccc2)CC1	-3[21.1 µM]	4%	-4%	-2.6%
COc1ccc(Cc2nn3c(-c4cc(OC)c(OC)c(OC)c4)nnc3s2)cc1	-1	13%	-13%	-2.0%
O=C(NCCS(=O)(=O)c1ccc(Br)cc1)c1ccc(F)cc1	/	15%	-1%	-6.7%
COc1ccc(C(=O)Nc2ccc(S(=O)(=O)N3CCCC3)cc2)cc1[N+](=O)[O-]	/	-16%	5%	-1.4%
CS(=O)(=O)c1ccc(Cl)c(NC(=O)CSc2n[nH]c(N)n2)c1	/	-2%	/	1.2%
CCCCn1c(N)c(N(CC)C(=O)c2cc(Br)ccc2Cl)c(=O)[nH]c1=O	0	4%	-1%	0.1%
O=C(NNC(=O)c1ccccc1O)c1ccc(NS(=O)(=O)c2ccc(F)c(F)c2)cc1	/	-15%	/	-0.4%
CCCCNC(=O)c1onc(CSc2cccc(OC)c2)c1C(=O)NCCCC	/	30%	/	0.4%
COC(=O)c1[nH]c2cc(OC)c(OC)cc2c1NC(=O)c1cccc(OC)c1	3	16%	-16%	0.1%
CCOC(=O)C1CCCN(c2c(NCCc3cccc(C)c3)c(=O)c2=O)C1 (stereo not given)	-2	17%	5%	-3.8%

Four entries drawn at random from those above:
SMILES	GLA inh pH 4.5	Rango dissoc inh	miR-21 reporter	Rango-impB inh
O=C(COC(=O)/C=C/c1cccc(F)c1)NC(=O)NCc1ccccc1	/	-24%	/	?
COC(=O)c1[nH]c2cc(OC)c(OC)cc2c1NC(=O)c1cccc(OC)c1	3	16%	-16%	0.1%
O=C(c1cccnc1)N1CCN(C/C=C/c2ccccc2)CC1	-3[21.1 µM]	4%	-4%	-2.6%
CS(=O)(=O)c1ccc(Cl)c(NC(=O)CSc2n[nH]c(N)n2)c1	/	-2%	/	1.2%

New compounds follow
SMILES	GLA inh pH 4.5	Rango dissoc inh	miR-21 reporter	Rango-impB inh
Cc1ccccc1-c1ccnc2[nH]n(-c3ccccc3)c(=O)c12	/	9%	1%&2%	-5.7%
NCCCCCc1nnc(SCc2ccc(Cl)cc2Cl)o1	3	-3%	0%	-0.9%
CCCn1c(N)c(N(CCOC)C(=O)CSCC(=O)Nc2ccc(C)cc2)c(=O)[nH]c1=O	/	11%	/	0.1%
N#Cc1cc(C(=O)c2cc(Cl)ccc2O)cn(-c2ccccc2)c1=O	-4	1%	7%	0.9%
O=[N+]([O-])c1ccccc1/C=N/N1CCN(c2ccncc2S(=O)(=O)N2CCCCC2)CC1	-12	3%	-5%	-1.3%
COc1ccc(C(=O)Cn2nnc(-c3ccccc3NC(=O)c3ccco3)n2)cc1	-6	13%	-3%	-3.2%
CC(=O)NCc1ccc(C(=O)CSc2nnc(-c3ccncc3)n2Cc2ccccc2)o1	0	0%	-1%	-3.7%
CCc1ccc(C(=O)C(C)OC(=O)Cn2[nH]c(=O)c3ccccc3c2=O)cc1 (stereo not given)	/	13%	/	0.4%
CCOC(=O)c1c(NC(=O)C2COc3ccccc3O2)sc(C)c1C (stereo not given)	-5	10%	-3%	0.1%
CC(=O)NS(=O)(=O)c1ccc(NC(=O)c2cc(-c3ccc(C)c(C)c3)nc3ccccc23)cc1	6	6%	-22%	-0.7%
CCOC(=O)C1C(=O)C=C(c2cccs2)CC1c1ccccc1C (stereo not given)	0	12%	-4%	0.1%
Cc1ccc(C(=O)Nc2ccccc2C(=O)NCC2CCCO2)cc1 (stereo not given)	/	2%	-3%	6.0%
Cc1occc1-c1nnc(SCC(=O)NC2CCCCC2C)o1 (stereo not given)	/	-21%	/	-0.7%
CCC(=O)NC(/C=C/c1ccccc1)c1cc([N+](=O)[O-])c2cccnc2c1O (stereo not given)	5	/	-2%	/
Cc1nnc(C)n1/N=C/c1c(O)ccc2ccccc12	/	?	1%	-3.4%
COc1cccc(/C=C/C(=O)OCC(=O)Nc2nnc(-c3ccccc3)o2)c1	/	3%	/	-3.6%
O=C(CCS(=O)(=O)c1cccc2nonc12)N1CCOCC1	1	-4%	-3%	0.0%
CC1CCN(C(=S)c2ccc(O)cc2)CC1	0	22%	-8%	?
O=S(=O)(Nc1nc2ccc(S(=O)(=O)N3CCCCC3)cc2s1)c1ccccc1	-5	-2%	0%	-2.6%
COc1ccc2ccccc2c1/C=N/Nc1ccc(Cl)c(C(=O)O)c1	/	?	-14%	?
CCOc1ccccc1/C=C\c1nc(O)c([N+](=O)[O-])c(=O)[nH]1	/	18%	-3%	4.1%
CC(NC(=S)Nc1ccc(Cl)cc1Cl)C(c1cccs1)N1CCCC1 (stereo not given)	-3	1%	1%	-3.7%
Cc1nn(C)c(Sc2ccccn2)c1[N+](=O)[O-]	13	-14%	-1%	1.1%
FC(F)(F)Oc1ccccc1-c1nnc(-c2cccc(C(F)(F)F)c2)o1	-11	1%	0%	2.5%
Cc1ccc(NC(=O)c2ccccc2CCc2ccccc2)c(C)c1	-5	15%	-2%	0.2%

Structural class: the entries above with a cyano group.
SMILES	GLA inh pH 4.5	Rango dissoc inh	miR-21 reporter	Rango-impB inh
N#CCCN1CCN(Cc2cc(-c3ccccc3)ccc2O)CC1	-7	-6%	-6%	0.3%
CC1CC(C)CN(c2oc(-c3ccccc3Cl)nc2C#N)C1 (stereo not given)	-7	29%	-5%	11%
N#Cc1cc(C(=O)c2cc(Cl)ccc2O)cn(-c2ccccc2)c1=O	-4	1%	7%	0.9%

Additional structures:
SMILES	GLA inh pH 4.5	Rango dissoc inh	miR-21 reporter	Rango-impB inh
CC(C)c1ccc(NC(=O)CCCN2C(=S)NC(C)(C)CC2C)cc1 (stereo not given)	-3	-1%	10%	1.5%
N#Cc1cccc(NC(=O)CN2CCN(Cc3ccccc3)CC2)c1	/	19%	-2%	-0.8%
COc1ccc(Cn2c(=O)[nH]c3cc(C(=O)N4CCN(Cc5ccccc5)CC4)ccc3c2=O)cc1	12	-2%	22%	-1.5%
COc1ccccc1-n1c(SCC(=O)NCc2ccc3c(c2)OCO3)nc2cc([N+](=O)[O-])ccc21	-8	-4%	-8%	-2.2%
O=C1NC(=S)SC1=Cc1ccc(F)cc1	/	11%	/	-1.1%
CCOc1ccc(NC(=O)CSc2nnc(-c3ccccc3Cl)n2Cc2ccco2)cc1	-8	-3%	6%	2.7%
Cc1c(NC(=O)CCc2ccccc2)cccc1[N+](=O)[O-]	-2	0%	-8%	0.2%
Cc1ccc(NS(=O)(=O)c2ccc(NC(=O)c3ccc(Br)o3)cc2)c(C)c1	-26	1%	21%	-0.1%
O=C(Cn1c(=O)c2cccn2c2cccnc21)N1CCN(c2ccc(Cl)cc2)CC1	/	-26%	7%	?
CCC(C)c1ccc(OCCN2CCCC2)cc1 (stereo not given)	0	-7%	-10%	0.4%
